UUG fidelity = alters start codon recognition fidelity in yeast | S. cerevisiae UUG-firefly luciferase reporter, luminescence/redox ratio | activity score, % at 18.7 µM | 350,000 tested, 0.13% active | AID 602363;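 active = replicate mean at a twofold rise or more, about +100% in these data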;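 note: firefly luciferase made from a UUG start codon reports start codon fidelity; reporter light over untreated wells divided by growth signal over untreated wells; some hits fall short of that in this replicate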
* = called active by the depositor.

SMILES	UUG fidelity
CCC(=O)Nc1ccc2c(c1)C(=O)N(C)C[C@@H](OC)[C@@H](C)CN(C(=O)C1CCC1)[C@H](C)CO2	-8
CN1CCN(C(=O)C[C@@H]2CC[C@H]3[C@@H](COC[C@H](O)CN3Cc3ccc4c(c3)OCO4)O2)CC1	0
COc1ccccc1CN1CC[C@H]2[C@H](CO)Nc3ccc(C#Cc4ccccc4)cc3[C@H]21	9
C[C@H](CO)N1C[C@H](C)[C@H](CN(C)S(=O)(=O)c2cn(C)cn2)Oc2c(NC(=O)C3CCOCC3)cccc2C1=O	-13
OC[C@@H]1[C@@H](c2ccc(-c3cccc(F)c3)cc2)[C@@H]2CN(Cc3cncnc3)CCCCN12	-12
C[C@@H](O)C#Cc1ccc([C@H]2[C@H]3CN(C(=O)c4ccc(F)cc4)CCCCN3[C@H]2CO)cc1	5
C[C@H](O)C#Cc1ccc([C@@H]2[C@H]3CN(C(=O)Nc4ccccc4)CCCCN3[C@H]2CO)cc1	50
CN(C)C(=O)c1cccc(-c2ccc([C@@H]3[C@H](CO)N4CCCCN(Cc5cccnc5)C[C@@H]34)cc2)c1	-10
O=C(c1cccnc1)N1C[C@@H]2[C@H](c3ccccc31)[C@@H](CO)N2C(=O)Nc1cccc(F)c1	-2
O=C(C[C@@H]1CC[C@H]2[C@@H](COC[C@H](O)CN2Cc2nccs2)O1)NCc1ccc(-c2ccccc2)cc1	1
CO[C@@H]1CN(C)C(=O)c2ccc(NS(C)(=O)=O)cc2OC[C@@H](C)NC[C@@H]1C	-23
C[C@H]1CN([C@@H](C)CO)C(=O)c2cc(NC(=O)Cn3cnnn3)ccc2O[C@@H]1CN(C)C(=O)Nc1cccc2ccccc12	5
O=C(Nc1ccccc1)N1CCCCN2[C@@H](CO)[C@@H](c3ccc(-c4ccccc4)cc3)[C@@H]2C1	11
Cc1ccc(S(=O)(=O)Nc2ccc3c(c2)CC(=O)N([C@H](C)CO)C[C@@H](C)[C@@H](CN(C)Cc2ccccc2)O3)cc1	-4
O=S(=O)(Cc1ccccc1)N1CCCCN2[C@H](CO)[C@@H](c3ccc(C#Cc4ccccc4)cc3)[C@@H]2C1	0
CCC(=O)N1CCCCN2[C@H](CO)[C@@H](c3ccc(C#Cc4cccnc4)cc3)[C@@H]2C1	-14
O=C(c1cccc(F)c1)N1CCCCN2[C@H](CO)[C@H](c3ccc(-c4ccccc4)cc3)[C@@H]2C1	14
CC(=O)N1[C@H](CNC(=O)CN(C)C)[C@@H](c2ccc(C3=CCCCC3)cc2)[C@@H]1CO	11
CCCN1C[C@H](C)[C@H](OC)CN(C)C(=O)c2cc(NS(=O)(=O)c3cn(C)cn3)ccc2OC[C@@H]1C	-9
COc1ccc(S(=O)(=O)N2CCCCN3[C@H](CO)[C@H](c4ccc(C#CC(C)C)cc4)[C@H]3C2)cc1	4
CCS(=O)(=O)Nc1ccc2c(c1)C(=O)N(C)[C@@H]1CC[C@@H](CC(=O)OC)O[C@H]1CO2	-9
C[C@@H]1CN([C@H](C)CO)C(=O)c2cc(NC(=O)Nc3ccc(C(F)(F)F)cc3)ccc2O[C@@H]1CN(C)Cc1ccc(C(=O)Nc2ccccc2N)cc1	-3
O=C(Cc1ccccc1)N1CC[C@H]2[C@H](CO)Nc3ccc(-c4ccccc4)cc3[C@H]21	-16
COc1ccc(NC(=O)Nc2ccc3c(c2)C(=O)N([C@H](C)CO)C[C@@H](C)[C@@H](CN(C)Cc2ccc(Cl)c(Cl)c2)O3)cc1	3
O=C(NC1CCC1)[C@H]1[C@H](CO)[C@H]2Cn3c(ccc(C4=CCCC4)c3=O)[C@@H]1N2C(=O)c1ccccc1	38
C[C@H]1CN([C@@H](C)CO)C(=O)c2cccc(NS(=O)(=O)c3ccc(F)cc3)c2O[C@@H]1CN(C)Cc1ccncc1	-13
COc1cccc(-c2ccc3c(c2)[C@@H]2[C@@H](CCN2C(=O)C2CCOCC2)[C@H](CO)N3)c1	0
CCCNC(=O)N1C[C@H]2[C@@H](c3ccccc31)[C@H](CO)N2Cc1ccc(OC)cc1	1
COc1ccc(C#Cc2ccc([C@@H]3[C@H]4CN(Cc5ccncc5)CCCCN4[C@H]3CO)cc2)cc1	-12
COc1ccc(S(=O)(=O)N2CCCCN3[C@H](C2)[C@@H](c2ccc(C#CC4CC4)cc2)[C@@H]3CO)cc1	1
CN(C)C(=O)c1cccc(-c2ccc([C@@H]3[C@H]4CN(Cc5cccnc5)CCCCN4[C@H]3CO)cc2)c1	-11
CC(C)NC(=O)N(C)C[C@@H]1OCc2ccccc2-c2ccccc2C(=O)N([C@@H](C)CO)C[C@H]1C	8
CNC[C@@H]1Oc2c(NS(=O)(=O)c3cccs3)cccc2C(=O)N([C@@H](C)CO)C[C@@H]1C	-9
O=C(NC[C@H]1N[C@@H](CO)[C@H]1c1ccc(-c2ccccc2)cc1)c1ccccc1F	11
O=C(c1cccc(F)c1)N1CCCCN2[C@@H](CO)[C@H](c3ccc(-c4ccccc4)cc3)[C@@H]2C1	4
CCC(=O)Nc1ccc2c(c1)C(=O)N(C)C[C@H](OC)[C@H](C)CN(C(=O)c1cnccn1)[C@H](C)CO2	9
CC(C)NC(=O)N(C)C[C@@H]1Oc2c(NS(=O)(=O)c3ccc(F)cc3)cccc2C(=O)N([C@H](C)CO)C[C@@H]1C	-3
CCCNC(=O)C[C@@H]1CC[C@@H]2[C@H](COC[C@@H](O)CN2C(=O)Nc2ccccc2OC)O1	7
CCCNC(=O)C[C@H]1CC[C@H]2[C@@H](COC[C@H](O)CN2C(=O)Nc2c(C)noc2C)O1	3
CC(C)NC(=O)N(C)C[C@H]1Oc2ccc(NC(=O)c3ccncc3)cc2CC(=O)N([C@H](C)CO)C[C@@H]1C	1
CCNC(=O)C[C@@H]1CC[C@@H]2[C@H](COC[C@@H](O)CN2C(=O)CC)O1	-14
COCC(=O)Nc1ccc2c(c1)[C@H]1C[C@H](CC(=O)NCC3CC3)O[C@@H](CO)[C@H]1O2	-22
C[C@@H]1CN([C@H](C)CO)C(=O)c2cc(NC(=O)Nc3ccccc3)ccc2O[C@H]1CN(C)C(=O)NC1CCCCC1	-2
COc1ccc(NC(=O)N2C[C@H](O)COC[C@H]3O[C@H](CC(=O)N4CCOCC4)CC[C@@H]32)cc1	-3
O=C(C1CCCC1)N1CCCCN2[C@@H](CO)[C@H](c3ccc(C#CC4(O)CCCC4)cc3)[C@@H]2C1	18
C[C@@H]1CN([C@H](C)CO)C(=O)c2cc(NS(=O)(=O)c3ccc(Cl)cc3)ccc2O[C@@H]1CN(C)S(=O)(=O)c1cn(C)cn1	12
CCC(=O)N1C[C@H](C)[C@H](OC)CN(C)C(=O)c2ccc(NC(=O)C3CC3)cc2OC[C@H]1C	0
O=C(c1ccncc1)N1C[C@@H]2[C@H](c3ccccc31)[C@H](CO)N2Cc1ccc(F)cc1	-8
O=C(Nc1ccc(F)cc1)N1C[C@@H]2[C@H](c3ccccc31)[C@@H](CO)N2C(=O)c1ccncc1	-9
OC[C@H]1[C@@H](c2ccc(Br)cc2)[C@H]2CN(Cc3cncnc3)CCCCN21	-9

(next part)
SMILES	UUG fidelity
CCNC(=O)[C@H]1[C@H](CO)[C@H]2Cn3c(ccc(-c4ccccc4)c3=O)[C@H]2N1Cc1ccccc1	15
Cc1noc(C)c1NC(=O)Nc1ccc2c(c1)CC(=O)N([C@@H](C)CO)C[C@H](C)[C@H](CN(C)C)O2	10
CN1C[C@@H]2[C@H](c3ccccc31)[C@H](CO)N2C(=O)CN1CCOCC1	-6
COc1ccc(-c2ccc3c(c2)[C@H]2[C@H](CCN2C(=O)c2ccc4c(c2)OCO4)[C@H](CO)N3C)cc1	-21
Cc1ccc(S(=O)(=O)Nc2ccc3c(c2)C(=O)N([C@@H](C)CO)C[C@H](C)[C@@H](CN(C)C(=O)Nc2ccc(C(F)(F)F)cc2)O3)cc1	0
COc1ccc(S(=O)(=O)Nc2ccc3c(c2)C(=O)N(C)C[C@@H](OC)[C@H](C)CN(C)[C@H](C)CO3)cc1	7
C[C@H](O)C#Cc1ccc([C@@H]2[C@H](CO)N3CCCCN(C(=O)c4cccc(F)c4)C[C@@H]23)cc1	8
Cc1cc(C(=O)Nc2cccc3c2O[C@@H](CN(C)S(=O)(=O)c2cccs2)[C@H](C)CN([C@H](C)CO)C3=O)n(C)n1	1
C[C@@H]1CN([C@H](C)CO)C(=O)c2cccc(NC(=O)Nc3ccc4c(c3)OCO4)c2O[C@H]1CN(C)S(=O)(=O)c1cn(C)cn1	-6
C[C@H]1CN([C@@H](C)CO)C(=O)c2cc(NC(=O)c3ccncc3)ccc2O[C@@H]1CN(C)C(=O)Nc1ccc(F)cc1	-5
C/C=C/c1ccc([C@H]2[C@@H](CO)N(C(C)=O)[C@@H]2CNC(=O)c2ccccc2)cc1	-9
C[C@@H]1CN([C@@H](C)CO)C(=O)c2cc(NC(=O)Nc3ccccc3)ccc2O[C@@H]1CN(C)C(=O)Nc1ccc(F)cc1	-5
CC(=O)NC[C@H]1[C@H](c2ccc(-c3cccnc3)cc2)[C@H](CO)N1C(=O)C1CCC1	-15
CN(C)C(=O)C[C@@H]1C[C@@H]2c3cc(NC(=O)Nc4ccc(C(F)(F)F)cc4)ccc3O[C@@H]2[C@@H](CO)O1	12
CS(=O)(=O)Nc1ccc2c(c1)[C@@H]1C[C@H](CC(=O)NCc3ccccc3F)O[C@@H](CO)[C@@H]1O2	-13
C[C@H]1CN([C@@H](C)CO)C(=O)Cc2cc(NS(=O)(=O)c3ccc(F)cc3)ccc2O[C@H]1CN(C)CC1CCCCC1	11
COc1ccc(CN(C)C[C@@H]2Oc3ccc(NC(=O)NC(C)C)cc3CC(=O)N([C@@H](C)CO)C[C@H]2C)cc1	-8
O=C(C1CCCC1)N1CCCCN2[C@H](CO)[C@@H](c3ccc(-c4cccc(F)c4)cc3)[C@H]2C1	-4
CN(C)C(=O)c1cccc(-c2ccc([C@H]3[C@@H](CO)N4CCCCN(CC5CCOCC5)C[C@@H]34)cc2)c1	9
O=C(NC1CCCC1)N1CCCCN2[C@H](C1)[C@H](c1ccc(-c3cncnc3)cc1)[C@@H]2CO	-9
CCCNC(=O)N1C[C@H]2[C@@H](c3ccccc31)[C@@H](CO)N2CC1CCCCC1	-1
O=C(CC(F)(F)F)N1C[C@@H]2[C@H](c3ccccc31)[C@H](CO)N2C(=O)C1CCCCC1	-3
CC(C)NC(=O)Nc1ccc2c(c1)C(=O)N([C@@H](C)CO)C[C@H](C)[C@H](CN(C)S(=O)(=O)c1ccccc1)O2	-11
COc1ccc(C(=O)Nc2ccc3c(c2)OC[C@@H](C)N(C(C)=O)C[C@H](C)[C@H](OC)CN(C)C3=O)cc1	6
COc1ccc(NC(=O)N(C)C[C@@H]2Oc3ccc(NS(=O)(=O)c4cn(C)cn4)cc3C(=O)N([C@H](C)CO)C[C@H]2C)cc1	4
O=C(Nc1nccs1)[C@@H]1[C@@H](CO)[C@@H]2Cn3c(cccc3=O)[C@H]1N2C(=O)C1CCC1	1
C[C@H]1CN([C@@H](C)CO)C(=O)c2cccc(NC(=O)c3nc4ccccc4s3)c2O[C@@H]1CN(C)Cc1ccncc1	-7
CO[C@@H]1CN(C)C(=O)c2ccc(NC(=O)C3CCCC3)cc2OC[C@H](C)N(C(C)=O)C[C@@H]1C	10
CC(C)NC(=O)N(C)C[C@H]1Oc2ccc(NS(=O)(=O)c3ccc(F)cc3)cc2CC(=O)N([C@@H](C)CO)C[C@@H]1C	-3
Cc1cccc(S(=O)(=O)N2C[C@@H]3[C@H](c4ccccc42)[C@@H](CO)N3C(=O)c2ccccc2)c1	0
CN1c2ccc(-c3cccc(C#N)c3)cc2[C@@H]2[C@@H](CCN2S(=O)(=O)c2ccccc2)[C@@H]1CO	-17
O=C(c1cccnc1)N1CCCCN2[C@H](CO)[C@H](c3ccc(C#Cc4ccccc4)cc3)[C@H]2C1	-3
CCNC(=O)[C@H]1[C@H](CO)[C@H]2Cn3c(ccc(-c4ccccc4)c3=O)[C@H]2N1Cc1cc(F)ccc1F	7
Cc1cccc(S(=O)(=O)N2CCCCN3[C@H](C2)[C@H](c2ccc(-c4ccccc4)cc2)[C@@H]3CO)c1	-1
CCCNC(=O)N1C[C@@H]2[C@H](c3ccccc31)[C@H](CO)N2C(=O)Nc1ccc(F)cc1	-1
O=C(NC[C@H]1[C@@H](c2ccccc2)[C@@H](CO)N1CC1CCCC1)c1cccnc1	-12

A portion from the list above, for reference:
SMILES	UUG fidelity
CCC(=O)N1C[C@H](C)[C@H](OC)CN(C)C(=O)c2ccc(NC(=O)C3CC3)cc2OC[C@H]1C	0
O=C(c1ccncc1)N1C[C@@H]2[C@H](c3ccccc31)[C@H](CO)N2Cc1ccc(F)cc1	-8
O=C(Nc1ccc(F)cc1)N1C[C@@H]2[C@H](c3ccccc31)[C@@H](CO)N2C(=O)c1ccncc1	-9
OC[C@H]1[C@@H](c2ccc(Br)cc2)[C@H]2CN(Cc3cncnc3)CCCCN21	-9
CCNC(=O)[C@H]1[C@H](CO)[C@H]2Cn3c(ccc(-c4ccccc4)c3=O)[C@H]2N1Cc1ccccc1	15
Cc1noc(C)c1NC(=O)Nc1ccc2c(c1)CC(=O)N([C@@H](C)CO)C[C@H](C)[C@H](CN(C)C)O2	10
CN1C[C@@H]2[C@H](c3ccccc31)[C@H](CO)N2C(=O)CN1CCOCC1	-6
COc1ccc(-c2ccc3c(c2)[C@H]2[C@H](CCN2C(=O)c2ccc4c(c2)OCO4)[C@H](CO)N3C)cc1	-21
Cc1ccc(S(=O)(=O)Nc2ccc3c(c2)C(=O)N([C@@H](C)CO)C[C@H](C)[C@@H](CN(C)C(=O)Nc2ccc(C(F)(F)F)cc2)O3)cc1	0
COc1ccc(S(=O)(=O)Nc2ccc3c(c2)C(=O)N(C)C[C@@H](OC)[C@H](C)CN(C)[C@H](C)CO3)cc1	7
C[C@H](O)C#Cc1ccc([C@@H]2[C@H](CO)N3CCCCN(C(=O)c4cccc(F)c4)C[C@@H]23)cc1	8

Only part of the results is shown (hit frequency here may not be typical).
